Screening results: PubChem, National Center for Advancing Translational Sciences (NCATS)
LASV entry inh = blocks Lassa virus binding to or entry into cells; actives 1.2% (n = 300,000); AID 540256; Lassa virus pseudotype entry inhibition, cell reporter; control for the full effect not named in the record; Potency, µM (top dose mostly 37.9 µM), for the others: at the top dose activity change, negative = inhibition, most hits filed as inhibitors; active means well fitted inhibition curve with a large enough effect; inconclusive means small, poorly fitted or top-dose-only effect, or effect the other way; inactive means flat fitted curve, though single readings scatter; tested in HEK293 cells; also: % is scaled to controls: 0 for no effect and ±100 for the full control effect; nearly all actives have a fitted effect of over 50% in size; luciferase read-out
RE007 growth inh = less growth of the S. pombe RE007 Vpr strain; S. pombe RE007 Vpr strain, BacTiter-Glo ATP luminescence, 24 h; control for the full effect not named in the record; Potency, µM (doses to about 92.2 µM), inactives show at the highest dose activity change, negative = less growth; actives 0.21% (n = 360,000); AID 651644; active = well fitted falling curve with a large enough effect; inconclusive = small, poorly fitted or top-dose-only effect; inactive = no such curve, though single readings can be large or run the other way;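 also: % is scaled to controls: 0 for no effect and ±100 for the full control effect; nearly all actives have a fitted effect of over 50% in size; the assay follows cell death caused by Vpr and the record does not say whether a fall means rescue or toxicity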
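Fission yeast strain RE007, carrying one chromosomally integrated HIV-1 vpr copy, was seeded at OD 0.01 in PMG+AL medium with 23 nL pinned compound. After 24 h at 30 °C and 99% humidity, viability was read by BacTiter-Glo luminescence.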
Marburg entry inh = blocks Marburg virus binding to or entry into cells | Marburg virus pseudotyped entry inhibition, cell reporter; control for the full effect not named in the record; about a third of the inactives were read at about 46 µM | actives 1.8% (n = 300,000) | Potency, µM (titrated, usually from 37.8 µM), for inactives: at the highest dose activity change, negative = inhibition, hits mostly inhibitors | AID 540276; active = well fitted inhibition curve with a large enough effect; inconclusive = small, poorly fitted or top-dose-only effect, or effect the other way; inactive = flat fitted curve, though single readings scatter; tested in HEK293 cells; about a fifth of its hits are not listed in these tables; also: % is scaled to controls: 0 for no effect and ±100 for the full control effect; luciferase read-out
2A StopGo = lowers the luciferase signal of an FMDV 2A StopGo reporter | human cells with a luciferase reporter of 2A StopGo recoding; control for the full effect not named in the record | Potency, µM (doses to about 57.9 µM), for the others: top-dose signal change, negative = less light | actives 1.2% (n = 410,000) | AID 1159524; active = well fitted falling curve with a large enough effect; inconclusive = small, poorly fitted or top-dose-only effect; inactive = no such curve, though single readings can be large or run the other way; tested in HEK293T cells; also: % is scaled to controls: 0 for no effect and ±100 for the full control effect; nearly all actives have a fitted effect of over 45% in size; luciferase light after 4 h
SARS PLP yeast = SARS-CoV PLP inhibition in yeast. actives 0.19% (n = 330,000). Potency, µM (highest dose often 32.9 µM), inactives show at the highest dose activity, positive = growth rescue. S. cerevisiae expressing SARS-CoV PLpro, growth rescue; control for the full effect not named in the record; active means well fitted rising curve with a large enough effect; inconclusive means small, poorly fitted or top-dose-only effect; inactive means no such curve, though single readings can be large or run the other way; also: 0% is about no effect; nearly all actives have a fitted effect of over 55% in size; growth read by luminescence after 48 h
Cruzain inh noDet = cruzain (T. cruzi) inhibition without detergent; Potency, µM, for the others: max response, negative = inhibition, most hits filed as inhibitors; purified cruzain, Z-FR-AMC fluorescence, no detergent; actives 2.3% (n = 200,000); AID 1476;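 also: plate controls were enzyme without inhibitor for no effect and buffer without enzyme for full effect; nearly all actives have a fitted effect of over 40% in size; top concentration of the series not given in the record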
Target sequence (P25779 123-467 limits assumed): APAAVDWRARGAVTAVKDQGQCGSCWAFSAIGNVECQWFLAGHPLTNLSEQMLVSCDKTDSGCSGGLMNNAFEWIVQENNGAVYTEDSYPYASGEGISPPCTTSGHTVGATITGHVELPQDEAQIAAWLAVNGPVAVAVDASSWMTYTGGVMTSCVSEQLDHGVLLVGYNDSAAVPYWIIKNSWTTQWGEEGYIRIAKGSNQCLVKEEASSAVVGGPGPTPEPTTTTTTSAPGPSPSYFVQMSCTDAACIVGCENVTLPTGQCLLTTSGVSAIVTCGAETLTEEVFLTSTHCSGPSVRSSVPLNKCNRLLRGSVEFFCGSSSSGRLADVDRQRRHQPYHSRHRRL
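Purified cruzain at 1.5 nM, pre-incubated 15 min with compound at room temperature in 100 mM sodium acetate pH 5.5, 5 mM DTT, 0.00005% Triton X-100. Reaction started with 2 uM Z-FR-AMC; AMC fluorescence increase over 60 s gives rate.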
Cruzain Triton = blocks cruzain activity in presence of Triton detergent | AID 1478 | P25779 | Potency, µM, for inactives: max response, negative = inhibition, most hits filed as inhibitors | actives 0.43% (n = 200,000) | purified cruzain, Z-FR-AMC fluorescence, 0.01% Triton;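 also: plate controls were neutral wells for no effect and buffer without enzyme for full effect; nearly all actives have a fitted effect of over 40% in size; top concentration of the series not given in the record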
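Read-out: AMC fluorescence (360 nm excitation, 450 nm emission), four reads over 2 min, first-to-third difference used. Conditions: cruzain 1.5 nM, Z-FR-AMC 2 uM, pH 5.5 acetate, 5 mM DTT, 0.01% Triton X-100.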
NS1 inh = blocks influenza NS1 protein function | S. cerevisiae slowed by influenza A NS1, growth recovery by OD600 | actives 0.4% (n = 270,000) | Potency, µM (series often up to 46.1 µM), for inactives: at the top dose activity, positive = more growth; active means well fitted rising curve with a large enough effect; inconclusive means small, poorly fitted or top-dose-only effect; inactive means no such curve, though single readings can be large or run the other way; also: nearly all actives have a fitted effect of over 50% in size
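A cell-based growth assay was used: compounds that relieve NS1-induced slow growth of budding yeast raise OD600. Assay medium was yeast nitrogen base with ammonium sulphate and -URA supplement, pH 6.0, with 2% galactose.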
Active calls of the source: *; ? = inconclusive; . = no result given; [ ] = dose if it differs, or a comment. Unless noted, calls follow the shape of the dose curve; as a rule, active = well fitted curve in the direction sought with a large enough effect; inconclusive = small, poorly fitted or top-dose-only effect, or another doubt; inactive = no such curve, though single readings can be large; an effect the other way counts as inactive or inconclusive. Potency is read from the fitted curve at half-maximal effect.

smiles	LASV entry inh	RE007 growth inh	Marburg entry inh	2A StopGo	SARS PLP yeast	Cruzain inh noDet	Cruzain Triton	NS1 inh
CC(=O)c1c(C(C)=O)c(C)n(-c2nc(-c3ccc(Br)cc3)c(C)s2)c1C	16.4µM*	42.3%	?	?	0.0%	22.6%	-4.9%	1.9%
CN(C)CCOC(=O)c1sc2ccccc2c1Cl	-0.2%[46.1 µM]	6.1%	12.0%[46.1 µM]	-4.0%	-1.7%	.	.	.
COC(=O)c1cc(-c2ccc3c(c2)OCO3)nc2ccccc12	-4.0%	-17.6%	-16.8%	-19.3%	2.0%	-9.0%	-9.4%	-3.3%
COc1ccc(C2c3ccc(O)cc3Oc3ncn(Cc4ccccc4)c(=N)c32)cc1OC (centres undefined)	?	-12.9%	?	-11.4%	-0.3%	.	.	5.3%
O=C(Oc1ccc(N(Cc2cccs2)C2=NS(=O)(=O)c3ccccc32)cc1)c1ccc(Cl)cc1	?	1.0%	-8.0%[46.1 µM]	-9.1%	8.0%	31.6µM*	-1.5%	9.8%
O=S(=O)(Oc1ccccc1-c1ccccc1)c1ccccc1	?	5.8%	?	-19.7%	.	.	.	.
Cc1cc([N+](=O)[O-])ccc1NC(=O)C(C)NC1CCCCC1 (centres undefined)	2.9%[46.1 µM]	-15.6%	1.3%[46.1 µM]	-5.9%	?	.	.	7.7%
COc1cc(CCC(=O)OCC(=O)Nc2ccc(C)cc2Br)cc(OC)c1OC	28.8%[46.1 µM]	5.9%	3.6%[46.1 µM]	17.1%	-1.4%	.	.	-3.7%
CCOc1cccc(C(=O)N(Cc2ccc(N(C)C)cc2)CC2CCCO2)c1 (centres undefined)	?	.	-4.4%[46.1 µM]	20.5%	.	6.2%	-1.1%	.
O=C(NCCc1ccccc1)c1ccc2c(=O)[nH]c3c(C(=O)NCC4CCCO4)sc(=S)n3c2c1 (centres undefined)	6.2%	-11.9%	-12.1%[46.1 µM]	-13.5%	-1.9%	.	.	5.6%
CC(=O)c1cccc(NC(=O)CSc2n[nH]c(=O)n2C2CC2)c1	6.9%[46.1 µM]	2.2%	10.2%[46.1 µM]	1.5%	-18.8%	.	.	.
Cc1ccc(CNC(=O)CSc2ccsc2[N+](=O)[O-])cc1	-9.2%[46.1 µM]	16.5%	?	25.8%	-2.2%	.	.	.
O=S(=O)(NC(=S)c1ccccc1)c1ccc(F)cc1	14.0%[46.1 µM]	1.3%	1.7%[46.1 µM]	30.4%[activator]	-1.6%	.	.	13.5%
O=C(Nc1ncc(S(=O)(=O)c2ccc([N+](=O)[O-])cc2)s1)c1cccc2ccccc12	-6.0%	8.8%	?	?	13.7%	12.6µM*	-4.1%	13.0%
COc1ccc(-c2cc3cccc(OC)c3oc2=O)cc1	.	-17.3%	.	0.0%	-5.0%	.	.	-7.9%
C=CCOC(=O)C1=C(C)NC(SCC(=O)Nc2nccs2)=C(C#N)C1c1cccs1 (centres undefined)	?	-1.3%	?	?	-7.4%	-5.6%	-12.1%	24.4%
Cc1cccc(-c2oc3ccccc3c2C#CCCO)c1	.	-5.9%	.	-7.8%	-1.1%	.	.	-47.8%
COc1ccc(S(=O)(=O)NCC2CCCO2)cc1NC(=O)c1ccccc1 (centres undefined)	5.4%	-9.7%	11.7%	55.0%[activator]	1.3%	.	.	0.7%
COc1cc2c(cc1OC)CN(c1nc(CN3CCOCC3)nc3sc4c(c13)CCC(C)C4)CC2 (centres undefined)	?	-9.1%	?	-25.4%	-3.2%	?	-3.1%	-17.2%
CCc1noc(C)c1C(=O)NCCc1ccc(OC)c(OC)c1	40.8%[14.3 µM]	-2.7%	0.5%	11.1%	0.4%	-0.1%	4.2%	0.5%
O=C(Nc1ccc(N2CCOCC2)cc1)c1ccc(S(=O)(=O)N2CCCCC2)cc1	8.6%	-15.2%	-1.1%	-14.1%	-2.7%	10.2%	1.0%	?
O=C(NCCc1ccc(Cl)cc1)C1CCN(C(=O)c2ccc(F)cc2)CC1	-8.2%[46.1 µM]	-7.2%	-2.9%[46.1 µM]	6.5%	-0.8%	.	.	-10.2%
CC(CC12CC3CC(CC(C3)C1)C2)NCc1ccccc1O (centres undefined)	.	-2.2%	.	?	1.0%	.	.	-21.7%
Oc1ccccc1CN1CCC(C(O)(c2ccccc2)c2ccccc2)CC1	?	-5.6%	?	0.0%	-2.3%	3.6%	-2.1%	2.5%
O=C(N/N=C/c1ccc2c(c1)OCO2)c1ccc(Br)o1	?	1.6%	?	0.6%	2.4%	?	?	-6.7%

Whole records, quoted from the list. Screens in order: LASV entry inh, RE007 growth inh, Marburg entry inh, 2A StopGo, SARS PLP yeast, Cruzain inh noDet, Cruzain Triton, NS1 inh
C=CCOC(=O)C1=C(C)NC(SCC(=O)Nc2nccs2)=C(C#N)C1c1cccs1 (centres undefined) reads ?, -1.3%, ?, ?, -7.4%, -5.6%, -12.1%, 24.4%
CC(=O)c1cccc(NC(=O)CSc2n[nH]c(=O)n2C2CC2)c1 reads 6.9%[46.1 µM], 2.2%, 10.2%[46.1 µM], 1.5%, -18.8%, ., ., .

Next section.
smiles	LASV entry inh	RE007 growth inh	Marburg entry inh	2A StopGo	SARS PLP yeast	Cruzain inh noDet	Cruzain Triton	NS1 inh
CCOC(=O)c1ccc(NC(=O)c2ccc(NS(C)(=O)=O)cc2)cc1	-5.2%	-16.5%	14.3%	.	-1.5%	4.5%	3.5%	-4.7%
O=C1c2ccccc2NC2(CCCC2)N1O	12.3%	-7.8%	14.7%[46.1 µM]	-25.0%	3.1%	3.7%	-6.9%	-4.6%
O=C(NCC1CCCO1)c1cn(-c2ccccc2)nc1-c1ccccc1 (centres undefined)	.	-1.7%	.	30.8%[activator]	-0.8%	.	.	-8.1%
CC(C)=N/N=C1/NC(=O)C(Cc2ccccc2)S1 (centres undefined)	.	-8.6%	.	-13.4%	-7.7%	.	.	14.3%
CCOC(=O)N/N=C(\C)c1ccc(Br)cc1	-21.1%	-5.0%	?	.	-3.1%	-7.1%	-7.1%	-3.6%
CCCN(CCC)S(=O)(=O)c1cc2c3c(c1)CCN3C(=O)CC2	.	6.9%	.	5.2%	-1.6%	.	.	8.9%
COc1ccccc1/C=C/C(=O)NC(=S)Nc1ccccn1	.	-16.6%	.	61.8%[activator]	25.6%	.	.	-1.2%
CC1(c2ccc(OC(F)F)cc2)NC(=O)N(CC(=O)Nc2ccc3[nH]c(=O)[nH]c3c2)C1=O (centres undefined)	-0.5%	-14.5%	-1.0%[46.1 µM]	-10.9%	-5.6%	.	.	.
O=C(CN(Cc1ccccc1)C(=O)c1csnn1)NCc1ccc2c(c1)OCO2	2.4%	-12.7%	11.0%[46.1 µM]	-10.4%	-2.3%	.	.	-3.2%
CC(/C=C/c1cccc(Oc2ccc(F)cc2)c1)N(O)C(N)=O (centres undefined)	?	.	?	15.3%[97.4 µM]	.	7.9%	-9.4%	-37.0%
CCOC(=O)N1CCN(c2ncnc3c2[nH]c2ccc(OC)cc23)CC1	?	-13.8%	10µM*	?	7.4%	-1.7%	-10.8%	-52.9%
Brc1ccccc1CNCCc1ccc2c(c1)OCO2	?	-11.1%	?	16.0%	1.3%	.	.	-11.0%
COc1ccc(OC)c(/C=N/NC(=O)c2ccncc2)c1	1.0%	-7.0%	9.7%	-16.7%	-1.1%	.	.	15.8%
Cn1cccc1C(=O)NC(=O)COC(=O)CNC(=O)c1ccc(Cl)cc1Cl	8.6%	-17.3%	?	21.7%	-2.8%	.	.	.
Cc1nn(CC(=O)c2cccc(Cl)c2)c(C)c1[N+](=O)[O-]	6.0%	-14.0%	12.9%[46.1 µM]	0.0%	0.5%	.	.	.
CCC(Oc1ccc(Br)cc1Cl)C(=O)Nc1nnc(C2CC2)s1 (centres undefined)	3.8%	21.7%	-0.3%	-7.4%	-13.8%	.	.	-45.2%
CC1CCCCC1NC(=O)CSc1nnc(-c2ccccc2)n1N (centres undefined)	19.6%	-18.3%	16.3%	10.1%	2.4%	6.1%	-8.7%	-0.3%
COc1cc(CNCc2ccccn2)ccc1OCc1ccc(Cl)cc1Cl	-3.7%	2.5%	?	?	-9.0%	1.8%	8.6%	2.6%
CC(Sc1ccc2ccccc2c1)C(=O)NC(N)=O (centres undefined)	-8.5%	-22.1%	-0.1%[46.1 µM]	-9.6%	1.8%	.	.	.
COc1ccc([N+](=O)[O-])cc1NC(=O)CSCc1ccccc1C	11.7%	22.7%	-4.0%	?	-24.7%	-1.6%	-8.8%	-0.5%
CN1c2ccccc2Oc2nnc(Cl)cc21	4.9%	-7.4%	6.9%[46.1 µM]	4.0%	0.1%	.	.	-6.6%
COc1ccccc1Nc1cc(C)nc2c(C)ccc([N+](=O)[O-])c12	-5.0%	-23.7%	?	?	1.2%	-12.8%	-10.7%	0.7%
Cc1cc(Cl)ccc1OCC(=O)OCC(=O)N(CC(C)C)c1c(N)n(Cc2ccccc2)c(=O)[nH]c1=O	2.3%	-4.8%	0.7%[46.1 µM]	-25.1%	-0.7%	.	.	.
O=C(NC1=NCCS1)c1ccccc1Br	-5.6%	14.9%	-12.7%[46.1 µM]	9.4%	.	.	.	.
COc1ccccc1NC(=O)Cc1nnc(SCC(=O)NC2CCCCC2)n1C	-8.9%[46.1 µM]	6.2%	-5.7%[46.1 µM]	-2.0%	0.7%	.	.	-15.5%
S=C(NCCc1ccccc1)NC1CCC(NC(=S)NCCc2ccccc2)CC1 (centres undefined)	?	8.7%	8.7%[46.1 µM]	-3.1%	1.4%	.	.	4.7%
